Compound activity: PubChem BioAssay, Broad Institute
HepG2 viability: viability loss in HepG2 hepatoma cells – cell-based, ATP luminescence, cherry-pick, activator set 2, cytotoxicity control, dose response (AID 1053143) | 3,400 tested, 3.7% active | activity change, negative = cytotoxicity, % at the top dose, mostly 26 µM; hits show AC50 in µM | HepG2 viability, CellTiter-Glo ATP luminescence, 72 h;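 active = fitted AC50 at most twice the highest valid dose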;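 also: 0 = neutral control and -100 = positive control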
Starred values were filed as active, the others as inactive; [ ] = dose if it differs, or a comment.

SMILES	HepG2 viability
COc1ccc(/C=C/C(=O)c2ccccc2)cc1Cn1nnc2ccccc21	-10.7%
Nc1c(C(=O)Nc2ccc(Cl)cc2)oc2ccccc12	-11.5%
Cc1ccc(-c2csc(NC(=O)c3cccc(C)c3)c2C(=O)O)cc1	-5.0%
Cc1ccc(C(=O)Nc2ccc(S(=O)(=O)N3CCOCC3)cc2)cc1Br	-0.5%
O=C(N=Nc1c(O)[nH]c2ccc(Br)cc12)c1ccco1	-2.8%
CC(C)(CNC(=O)c1cccc(S(=O)(=O)N2CCCCC2)c1)N1CCOCC1	4.9%
CCSc1ncccc1C(=O)N[C@@H](CCSC)C(=O)OC	3.4%
c1cn2c(Nc3ccc4c(c3)OCCO4)c(-c3ccc(N4CCOCC4)cc3)nc2cn1	-10.4%
CCOc1ccc(C(=O)Nc2ccc3[nH]ncc3c2)cc1	-17.4%
CN(C)c1ccc(-c2ccc3c(=O)c4ccccc4n(C)c3c2)cn1	-0.1%
Cc1c(C(=O)Nc2ccccc2)csc1-c1ccccc1	-12.8%
O=C(CCC(=O)OCC(=O)c1cccc([N+](=O)[O-])c1)Nc1cccc(Cl)c1Cl	-8.1%
CCOc1ccc(NC(=O)c2ccccc2OC)cc1	-6.9%
O=C1C=C(c2ccc3[nH]ccc3c2)CCC1	5.5%
Cc1sc2c(c1C)C(=O)NC(c1ccccc1F)N2 (stereo not given)	-4.8%

Given bar-delimited: part of the list above
structure | HepG2 viability
O=C(CCC(=O)OCC(=O)c1cccc([N+](=O)[O-])c1)Nc1cccc(Cl)c1Cl | -8.1%
CCOc1ccc(NC(=O)c2ccccc2OC)cc1 | -6.9%

(listing goes on)
SMILES	HepG2 viability
CC(=O)Nc1ccccc1OCC(=O)c1ccc2c(c1)OCO2	-21.6%
Cc1ccc(NC(=O)c2ccc(Cl)cc2Cl)cc1O	26µM*
O=C(Nc1ccc(F)cc1F)c1csc(-c2cccs2)n1	-6.1%
CCCCN(C)C(=O)c1cc2cc3cc(OC)ccc3nc2o1	-7.9%
Cc1ccc(Nc2nnc(-c3ccccc3N)o2)cc1C	-22.0%
Cc1cc2ccccn2c1C(=O)c1nc(NCc2ccccc2)ncc1Cl	-0.4%
O=C(c1cc(-c2ccc(Cl)cc2Cl)on1)N1CCCCCC1	2.3%
Cc1ccnc(SCC(=O)c2ccc(Br)cc2)c1C#N	-8.1%
COc1ccc2cc(C(=O)N3CCc4ccccc43)[nH]c2c1	-10.1%
CN=C(c1ccc(C)cc1)n1c(=S)nc(-c2ccc(C)cc2)n(C)c1=S	3.5%
CN(C)Cc1c(C(=O)Nc2ccccc2)[nH]c2ccccc12	-17.3%
Cc1ccc(C)c(OCc2nc3ccccc3[nH]2)c1	-15.4%[12 µM]
CC(=O)Nc1ccc2nc3ccccc3nc2c1	-15.2%
O=[N+]([O-])c1ccc2nc(-c3ccccc3)[nH]c2c1	-19.8%
O=[N+]([O-])c1cccc(-c2noc(-c3cccs3)n2)c1	-5.7%
COc1cc2c(cc1OC)C1CCc3cc4c(cc3C1N=C2)OCO4 (stereo not given)	-8.9%
Cc1ccc(C(=O)NCCc2ccc(F)cc2)s1	-7.6%
Cc1ccc2nc(-c3ccc(NC(=O)CSc4nc(N)cc(=O)[nH]4)cc3)sc2c1	0.7%
CCOc1ccc(/C=N/Nc2ccccn2)cc1	5.9%
CC(=O)Oc1ccc2occ(C(=O)c3cccs3)c2c1	-12.7%
Cc1nn(C(=O)c2ccc3c(c2)OCO3)c(N)c1-c1ccccc1	-22.7%
Cc1cc(O)c(-c2cc(C(=O)Nc3cccnc3)[nH]n2)cc1C	1.9%
Cc1ccsc1C(=O)OCC(=O)c1ccc[nH]1	-16.2%
COc1ccc2oc(C(=O)c3ccccc3)c(N)c2c1	-10.4%
Oc1c(C=Nc2ccc(Cl)cn2)sc2ccccc12	49.7%
Cn1cccc1-c1nc2ccc(NC(=O)c3ccco3)cc2[nH]1	-2.2%
Oc1ccccc1/C=N/N1CCN(c2ccccn2)CC1	-0.3%
CC1(C)CC(=O)/C(=N/Nc2ccc(Cl)cc2)CO1	-9.3%
O=C(CCCc1ccccc1)c1ccccc1	-8.0%
Clc1ccc(/C=C/c2ncc3ccccn23)cc1	-10.9%
O=C(CSc1ccsc1[N+](=O)[O-])NCc1ccco1	-1.8%
CCCc1cc(NCCCn2ccnc2)n2nc(C)c(-c3ccccc3)c2n1	-21.0%
O=C(O)c1ccc(-c2noc(-c3ccccc3Cl)n2)cc1	-9.5%
O=C(Nc1nc2ccccc2s1)Nc1ccc(F)cc1F	-0.7%
O=C(Nc1ccc(Cl)cn1)c1ccc([N+](=O)[O-])o1	26µM*
Cc1cc(N2CCCC2)ccc1/C=C1\NC(=S)N(C)C1=O	-19.7%
O=c1ncn(-c2cccc(Cl)c2)c2ccccc12	-12.8%[12 µM]
CN(C)/C=C/C=C1C(=O)CCCC1=O	-20.7%
Cc1ccccc1-c1nnc(-c2cccc3ccccc23)o1	-15.0%
CCOCc1c(C(=O)OCC(=O)Nc2ccccc2C(N)=O)oc2ccccc12	-5.4%
Nc1nc2ccccc2n1C(=O)c1ccco1	-22.9%
COc1ccc2c(c1)-c1nc(NC(=O)c3ccco3)sc1CC2	-11.4%
O=C(C1CC12CCCC2)N1CCC(CO)(Cc2ccccc2Cl)CC1 (stereo not given)	-2.8%
COc1ccc(Nc2oc(-c3ccc(OC)cc3)nc2C#N)cc1	-9.8%
CCN1C(=O)S/C(=C\c2ccc(N3CCOCC3)cc2C)C1=O	21.6%

An excerpt from further up, for reference:
SMILES	HepG2 viability
CN(C)c1ccc(-c2ccc3c(=O)c4ccccc4n(C)c3c2)cn1	-0.1%
Cc1c(C(=O)Nc2ccccc2)csc1-c1ccccc1	-12.8%
O=C(CCC(=O)OCC(=O)c1cccc([N+](=O)[O-])c1)Nc1cccc(Cl)c1Cl	-8.1%
CCOc1ccc(NC(=O)c2ccccc2OC)cc1	-6.9%
O=C1C=C(c2ccc3[nH]ccc3c2)CCC1	5.5%
Cc1sc2c(c1C)C(=O)NC(c1ccccc1F)N2 (stereo not given)	-4.8%
CC(=O)Nc1ccccc1OCC(=O)c1ccc2c(c1)OCO2	-21.6%
Cc1ccc(NC(=O)c2ccc(Cl)cc2Cl)cc1O	26µM*
O=C(Nc1ccc(F)cc1F)c1csc(-c2cccs2)n1	-6.1%
CCCCN(C)C(=O)c1cc2cc3cc(OC)ccc3nc2o1	-7.9%
Cc1ccc(Nc2nnc(-c3ccccc3N)o2)cc1C	-22.0%
Cc1cc2ccccn2c1C(=O)c1nc(NCc2ccccc2)ncc1Cl	-0.4%
O=C(c1cc(-c2ccc(Cl)cc2Cl)on1)N1CCCCCC1	2.3%
Cc1ccnc(SCC(=O)c2ccc(Br)cc2)c1C#N	-8.1%
COc1ccc2cc(C(=O)N3CCc4ccccc43)[nH]c2c1	-10.1%
CN=C(c1ccc(C)cc1)n1c(=S)nc(-c2ccc(C)cc2)n(C)c1=S	3.5%
CN(C)Cc1c(C(=O)Nc2ccccc2)[nH]c2ccccc12	-17.3%
Cc1ccc(C)c(OCc2nc3ccccc3[nH]2)c1	-15.4%[12 µM]
CC(=O)Nc1ccc2nc3ccccc3nc2c1	-15.2%
O=[N+]([O-])c1ccc2nc(-c3ccccc3)[nH]c2c1	-19.8%
O=[N+]([O-])c1cccc(-c2noc(-c3cccs3)n2)c1	-5.7%
COc1cc2c(cc1OC)C1CCc3cc4c(cc3C1N=C2)OCO4 (stereo not given)	-8.9%
Cc1ccc(C(=O)NCCc2ccc(F)cc2)s1	-7.6%
Cc1ccc2nc(-c3ccc(NC(=O)CSc4nc(N)cc(=O)[nH]4)cc3)sc2c1	0.7%
CCOc1ccc(/C=N/Nc2ccccn2)cc1	5.9%
CC(=O)Oc1ccc2occ(C(=O)c3cccs3)c2c1	-12.7%
Cc1nn(C(=O)c2ccc3c(c2)OCO3)c(N)c1-c1ccccc1	-22.7%
Cc1cc(O)c(-c2cc(C(=O)Nc3cccnc3)[nH]n2)cc1C	1.9%
Cc1ccsc1C(=O)OCC(=O)c1ccc[nH]1	-16.2%
COc1ccc2oc(C(=O)c3ccccc3)c(N)c2c1	-10.4%
Oc1c(C=Nc2ccc(Cl)cn2)sc2ccccc12	49.7%

Next section.
SMILES	HepG2 viability
Fc1ccc(/C=N/NC2=Nc3cccc4cccc2c34)cc1	-14.4%
Cc1ccc(C(=O)Cn2nnc(-c3cccs3)n2)cc1	17.0%
Cc1ccc(-c2noc(CSc3ccccc3)n2)cc1	-12.3%
CCCCN1CCc2c([nH]c3ccc(C)cc23)C1=O	-7.2%
CCc1ccc(Nc2ncnc3nc[nH]c23)cc1	0.4%
Cc1nnc(NC(=O)c2ccc(S(=O)(=O)N3CCCCC3)cc2)s1	-2.7%
COc1ccc(CN(C)C(C)C(=O)Nc2ccc(S(=O)(=O)N3CCCCC3)cc2)cc1F (stereo not given)	0.6%
CC(=O)c1ccc(N=Nc2ccc(N)cc2)cc1	-5.6%
O=[N+]([O-])c1cc(Cl)ccc1-c1nc(-c2ccccc2)no1	-7.1%
C/C(=N\OC(=O)Nc1ccc(Cl)cc1)c1ncc(C(F)(F)F)cc1N1CCOCC1	-2.7%
Cc1nc(SCC(=O)c2cccs2)c2oc3ccccc3c2n1	-3.3%
Cc1ccc(NC(=O)c2ccc(F)cc2F)cc1	-4.2%
COc1cccc(C=NNc2nc3ccccc3s2)c1OC	-14.8%
COc1ccc2oc(C(=O)Nc3nc(C)cs3)c(C)c2c1	20.2%
CC(=O)Nc1cccc(-c2nnc(-c3ccccc3)o2)c1	-3.4%
COc1ccc(/C=C/C(=O)c2ccc[nH]2)cc1OC	-6.2%
COc1ccc(NC(=O)/C=C/c2cccc(F)c2)cn1	-0.5%
COc1ccc(C2CC(=O)N(C)c3ccccc3S2)cc1OC (stereo not given)	-1.1%
O=C(O)Cc1sc(Nc2ccccc2)nc1-c1cccs1	1.7%
CCOC(=O)N1N=C(CC)CC1(O)C(F)(F)F (stereo not given)	10.4%
COc1ccc(-c2cn3cccc(C)c3n2)cc1F	-15.3%
CCn1c(SCC(=O)Nc2ccc3c(c2)OCO3)nnc1-c1ccccc1O	-5.6%
CC(C)c1ccc(Nc2nnc(SCC(=O)NCC3CCCO3)s2)cc1 (stereo not given)	-16.9%
O=C(N=Nc1c(O)[nH]c2ccccc12)c1cccs1	-19.6%[12 µM]
Cc1ccc(NC(=O)Nc2cnc3ccccc3c2)cc1	-13.6%
COc1ccc(C(=O)Cc2ccc3c(c2)OCO3)c(O)c1	-17.0%
O=C(CSc1nnnn1C1CCCC1)c1ccc2c(c1)OCCO2	-8.0%
CCCCc1ccc(-c2nc(N)n[nH]2)cc1	0.9%
Cc1ccc(NC(=O)c2ccc(F)cc2)nc1	6.9%
O=C(O)c1ccc(N=Nc2c(O)[nH]c3cc(Cl)ccc23)cc1	17.5%
CC(C)c1nnc(NC(=O)c2cccc(NC(=O)C(F)(F)F)c2)s1	49.9%
COc1ccc(/C=C/c2nc(-c3ccccc3O)n[nH]2)cc1	-1.7%
O=C(Nc1ncccc1Cl)c1cc2ccccc2o1	-1.9%
NC(=O)c1ccccc1OCc1nc2ccccc2s1	8.2%
O=C(/C=C/Nc1cccc(O)c1)c1ccccc1	-0.2%
Fc1ccc(-c2ccc3c(n2)CCCN3Cc2ccccn2)cc1	-0.1%
Cc1nn(-c2ccccc2)c(N)c1N=Nc1ccc(Cl)cc1	-6.9%
COc1cccc(C(=O)Nc2ccc3c(C)cc(=O)oc3c2)c1	-16.0%
CC(=O)Nc1ccc(/C=C/c2nc3ccccc3o2)cc1	-22.3%
CC1CCC(C(C)C)C(=O)/C1=C/c1ccc(N)cc1 (stereo not given)	-13.4%
Cc1c(C(=O)Nc2ccccn2)oc2ccc(Br)cc12	3.0%
Cc1nc2ccc(NC(=O)CSc3ccccc3)cc2s1	-9.8%
CCc1ccc(OCC(=O)O/N=C(\N)c2ccncc2)c(Br)c1	-8.0%
Cn1nnc(-c2ccc(OCc3ccccc3F)cc2)n1	26µM*
N/C(=N\OC(=O)c1cccc2ccccc12)c1cccnc1	-9.5%
COC(=O)[C@@H](NC(=O)NCCC1=CCCCC1)C(C)C	0.2%[6 µM]
Cc1nnc(SCc2ccccc2)nc1-c1ccccc1	-13.8%
OC(c1ccccc1)c1nc(-c2cnc3ccccc3c2)cs1 (stereo not given)	1.2%
O=C(CC1CCCC1)Nc1nc2ccccc2[nH]1	-11.5%
COc1ccc(-c2csc(Nc3cccc(C)n3)n2)cc1OC	-16.5%
Cn1c2ccccc2c(=O)c2c(=O)n(-c3ccc(F)cc3)c(-c3cccs3)nc21	-9.2%
COc1ccc(-c2ccc3ccccc3n2)cc1OC	-5.9%
COCC(=O)Nc1nc2ccc(C)cc2s1	-17.2%
COc1ccc(NC(=O)O/N=C/c2ccccc2)cc1	-7.8%
O=C(CSc1nnc(-c2ccc(O)cc2)o1)Nc1cccc(O)c1	-10.6%
CCC(=O)c1ccc(OCCSc2ncccn2)cc1	-12.0%
CCCC(=O)N/C(N)=N/c1nc2ccccc2o1	-11.3%
Cc1cc(/C=C2\SC(=S)NC2=O)c(C)n1-c1cccc(O)c1	-8.1%
Cc1ccnc(SCc2cc(=O)c(OC(=O)c3ccc(Br)o3)co2)n1	-5.5%
N/C(Cc1nc(-c2ccc(Cl)cc2)cs1)=N/O	-32.0%

Additional entries.
SMILES	HepG2 viability
CCOC(=O)C1CCN(C(=O)c2cc3cc(C)ccc3[nH]2)CC1	7.8%
Cc1ccc(-n2nc3ccc(N)cc3n2)cc1C	-0.7%
O=C(NCC(c1ccc(F)cc1)N1CCOCC1)c1c(F)cccc1F (stereo not given)	-14.6%
COc1ccc(N=Nc2cc(C)ccc2O)cc1	-4.5%
COC(=O)C(Cc1c[nH]c2ccccc12)NC(=O)c1ccc2nc[nH]c2c1 (stereo not given)	-3.1%
Nc1cc(SCc2ccc([N+](=O)[O-])cc2)ncn1	-8.6%
O=C(/C=C/c1ccccc1Cl)Nc1ccccc1	-19.1%
CCOc1cc(/C=N/NC(=O)N/N=C/c2ccc(O)c(OCC)c2)ccc1O	-8.5%
C(=N\Nc1ncnc2nc[nH]c12)/c1cccs1	-14.0%
Cc1ccc(CNC(=O)CSc2nc3ccsc3c(=O)n2Cc2ccccn2)cc1	-3.4%
COC(=O)c1ccc(-c2nc3ccc(C)cc3o2)cc1	-4.6%

Not all compounds are listed; the hit share may differ from the screen's.
